# Compound activity: PubChem BioAssay, several laboratories
# RGS16-Gao HTS = RGS16-Galphao interaction regulator (human); 0.38% of 220,000 active; O15492+P09471; binding response (% of control), % at 10 µM; bead-based flow cytometry RGS16-Galphao binding, fluorescence; actives lie on both sides;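 active = below 25% or above 175%, edge rows of some plates excepted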;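 also: Galphao activated by GDP with aluminum fluoride before binding; 100% = wells without compound and 0% = beads without RGS; some results beyond the cut were filed as inactive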
# GALR2 agonist = activates the human galanin receptor 2; O43603; GALR2-expressing cells, agonist activation read-out; activation, %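 (tested at 5 µM)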; 0.48% of 140,000 active; AID 803;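 active = above mean plus 3 SD of all compounds, about 5% in these data, not always enough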;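 also: 0% = vehicle buffer wells and 100% = reference agonist at full effect; tested in CHO reporter cells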
# Insulin prom inh = TRM-6 insulin promoter activity inhibition; inhibition, % at 2 µM; AID 1273; TRM-6 cells (human fetal islet line), insulin promoter-eGFP reporter, imaging; reporter expression induced with tamoxifen; 0.9% of 130,000 active;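 active = inhibition above the mean plus 3 SD, with well images judged a real hit on visual review, cut at about 60% in these data, passing the limit was not always enough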
# PKD1 inh = blocks activity of human protein kinase D1; inhibition, %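 (about 10 µM by stock and volumes)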; AID 797; Q15139; PKD1 kinase fluorescence polarization assay; 0.056% of 200,000 active;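 active = inhibition of 50% or more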;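 also: controls were vehicle for no effect and a reference inhibitor for full effect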
# Target sequence (Q15139 whole entry, looked up): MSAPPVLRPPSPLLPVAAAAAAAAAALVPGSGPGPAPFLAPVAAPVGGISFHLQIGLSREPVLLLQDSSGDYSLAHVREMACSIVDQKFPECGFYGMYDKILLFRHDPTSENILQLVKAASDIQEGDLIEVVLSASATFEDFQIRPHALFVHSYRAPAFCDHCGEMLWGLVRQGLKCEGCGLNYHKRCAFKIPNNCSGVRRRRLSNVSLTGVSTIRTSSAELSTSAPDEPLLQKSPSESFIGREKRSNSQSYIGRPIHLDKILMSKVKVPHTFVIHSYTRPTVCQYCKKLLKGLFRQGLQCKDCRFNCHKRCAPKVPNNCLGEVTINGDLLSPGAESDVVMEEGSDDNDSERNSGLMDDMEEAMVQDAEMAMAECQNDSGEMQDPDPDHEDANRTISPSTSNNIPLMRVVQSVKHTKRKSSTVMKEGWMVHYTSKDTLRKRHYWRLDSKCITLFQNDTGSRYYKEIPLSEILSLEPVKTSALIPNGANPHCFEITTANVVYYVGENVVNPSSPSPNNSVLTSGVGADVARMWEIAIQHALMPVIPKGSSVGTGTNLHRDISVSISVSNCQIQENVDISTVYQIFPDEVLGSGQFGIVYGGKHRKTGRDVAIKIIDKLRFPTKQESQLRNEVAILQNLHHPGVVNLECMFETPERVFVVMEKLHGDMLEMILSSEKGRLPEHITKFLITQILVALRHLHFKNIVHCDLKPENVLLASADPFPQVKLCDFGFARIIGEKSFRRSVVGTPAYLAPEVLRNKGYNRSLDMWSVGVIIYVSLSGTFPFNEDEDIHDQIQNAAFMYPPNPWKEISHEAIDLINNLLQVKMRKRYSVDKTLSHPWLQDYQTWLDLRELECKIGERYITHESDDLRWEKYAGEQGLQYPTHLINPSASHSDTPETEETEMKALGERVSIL
# HSV augment = HSV replication enhancement; AID 1956; HSV replication augmentation in cells, fold increase; maximum fold increase; 0.005% of 220,000 active;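 active = peak rise of 1.5-fold or more in the series; tested in PC3 cells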;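 also: first round at 10 µM; read as green reporter fluorescence; hits show the peak of a series up to 25 µM; 1 = signal of infected wells without compound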
# Insulin prom inh cell count = also measured in Insulin prom inh; calls as there; normalized cell count, %; measured here: cell count, toxicity; reference of the scale not given here;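 cells exposed to compound for 48 h; stained nuclei by imaging scaled within each plate; lower means fewer cells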
# HSV augment primary fold = also measured in HSV augment; calls as there; fold increase; compound at 10 µM; measured here: primary screen fold increase 10 uM; tested in PC3 cells;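 GFP signal in the first replicate; 1 = infected wells without compound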
# Active calls of the source: *; i = inactive; x = no result given.
SMILES	HSV augment primary fold	Insulin prom inh	Insulin prom inh cell count	PKD1 inh	RGS16-Gao HTS	HSV augment	GALR2 agonist
COc1cc(NC(=O)CN2c3cccc4cccc(c34)S2(=O)=O)cc(OC)c1OC	0.91	38	186	3	93	i	0.2
CC(C)(C)NC(=O)Cn1c(SCC(=O)NCc2cccs2)nc2ccccc21	0.92	x	x	-3	103	i	0.3
O=C(c1cccc([N+](=O)[O-])c1)N1CCCC(C(=O)N2CCCCCC2)C1 (stereo unspecified)	1.1	x	x	x	96	i	x
CCC(C)N(C(=O)Cn1nnc2ccccc21)C(C(=O)Nc1ccc(F)cc1)c1cccc(OC)c1 (stereo unspecified)	0.86	-26	112	4	94	i	-0.2
CC1(C)CC(=O)C(C=Nc2ccc(C(=O)c3ccccc3)cc2N=CC2=C(O)CC(C)(C)CC2=O)=C(O)C1	x	x	x	6	96	x	x
FC(F)Oc1ccc(NC(=S)NCc2nc3ccccc3[nH]2)cc1	1.1	-16	106	-5	99	i	x
CCCCNC(=O)N1CCN(c2ccccc2OC)CC1	1.1	x	x	8	99	i	x
COc1ccccc1C1CC(c2ccc(NS(C)(=O)=O)cc2)=NN1C(=O)c1ccccc1 (stereo unspecified)	x	54	99	-2	94	x	x
C/C(=N\NC(=O)C1COc2ccccc2O1)c1ccc(Cl)s1 (stereo unspecified)	0.95	x	x	1	104	i	x
Cc1cccc(NC(=S)NNC(=O)c2ccc(O)cc2O)c1C	0.91	7	115	-1	103	i	x
N#Cc1cccc(C(c2nnnn2C2CCCC2)N2CCCCCC2)c1 (stereo unspecified)	1	-37	69	2	186	i	-2.5
CC(C)=C1C2CCC1C1C(=O)N(CCc3ccccc3)C(=O)C21 (stereo unspecified)	0.95	-67	110	2	110	i	0.4
O=C(C1CCN(S(=O)(=O)N2CCCC2)CC1)N1CCCCC1	0.72	-42	37	-1	98	i	-0.6
CCC(=O)NC1(C(F)(F)F)C(=O)Nc2c1c(=O)[nH]c(=O)n2Cc1ccco1 (stereo unspecified)	0.97	x	x	19	68	i	-1.8
CC(=O)n1nc(-c2cccnc2)nc1NCc1cccs1	1.1	15	102	-10	93	i	x
Cn1c(=O)[nH]c(=O)c2c1nc(NCc1ccccc1)n2CCCc1ccccc1	0.99	38	104	-3	125	i	-1.0
N#CC1=C(N)Oc2n[nH]c(-c3cccs3)c2C1c1ccsc1 (stereo unspecified)	1.1	-324	36	-6	97	i	0.6
O=c1cc(Cc2ccccc2)[nH]c(=S)[nH]1	0.95	-21	107	-4	102	i	0.0
Cc1ccc(NS(=O)(=O)c2cc(C(=O)Nc3cccc(N(C)S(C)(=O)=O)c3)ccc2C)c(C)c1	0.87	-13	157	2	108	i	1.4
COc1ccc(OC)c(-c2nc(CN3CCCCC3c3cccnc3)c(C)o2)c1 (stereo unspecified)	0.96	-78	135	-1	111	i	x
COc1ccc(NC(=O)c2sc3nc(-c4cccnc4)ccc3c2N)cc1	1.2	x	x	x	64	i	x
CCN1C(=O)N/C(=C/c2cc(C)n(Cc3ccccc3)c2C)C1=O	0.89	x	x	1	102	i	-0.9
OCCCCNCc1cc(Br)ccc1OCc1ccccc1	0.97	47	89	3	100	i	x
CCCn1c(SCC(=O)N2CCN(c3ccccc3)CC2)nc2ccccc2c1=O	0.62	18	100	-2	102	i	0.0
Cc1c(C)c2ccc(OCc3ccc(C(=O)O)o3)c(C)c2oc1=O	0.93	x	x	-13	101	i	-0.3
COc1ccc(Cc2nc3ccc(S(N)(=O)=O)cc3[nH]2)cc1OC	1	0	161	-8	88	i	-0.3
CCc1nnc(NC(=O)C2CCN(c3nccc(C)n3)CC2)s1	0.96	-30	220	1	92	i	0.0
CC(O)CSc1nc2c(c(=O)[nH]c(=O)n2C)n1CC(O)COc1ccccc1 (stereo unspecified)	0.96	x	x	5	102	i	x
CC(C)c1cc(C(=O)O)n[nH]1	1	x	x	-3	114	i	-1.8
Cc1cc2c(cc1C)C(c1ccsc1)CC(=O)N2 (stereo unspecified)	1	x	x	-4	100	i	x
COC(=O)c1c(NC(=O)CSc2nnc(Cn3nnc4ccccc43)n2C)sc(C)c1C	0.85	-15	101	-4	108	i	0.2
CCOc1ccc2oc(C(=O)NC3CC(C)(C)NC(C)(C)C3)c(C)c2c1	0.93	-21	46	-7	110	i	x
Cc1nc(N)sc1C(=O)NN	1.2	x	x	x	102	i	x
COc1ccc(OCCCC(=O)Nc2cccc([N+](=O)[O-])c2)cc1	1	29	99	1	102	i	-0.8
CC(=O)Oc1ccc(C(=O)Nc2ccccc2C(=O)NCC(C)C)cc1	0.99	20	114	-1	118	i	-1.3
Cc1cc(C)c(NC(=S)N(CCN(C)C)C(C)c2cccnc2)c(C)c1 (stereo unspecified)	0.96	0	98	-7	104	i	x
COc1ccc(NC(=O)C(NC(C)=O)C(=O)NCc2ccccc2OC)cc1 (stereo unspecified)	0.99	19	146	2	97	i	-3.1
O=C(NNC1CC(=O)N(c2ccccc2)C1=O)c1ccco1 (stereo unspecified)	1	x	x	-7	95	i	x
COc1ccccc1NS(=O)(=O)c1cc(N)ccc1N1CCCCC1	0.85	x	x	3	85	i	x
CCC(C(=O)OCC(=O)Nc1c(Cl)cccc1Cl)c1ccccc1 (stereo unspecified)	0.98	-31	116	6	120	i	-1.6
CC(=O)Nc1cccc(OCC(O)Cn2cnc3ccccc32)c1 (stereo unspecified)	0.85	-9	61	-5	102	i	-3.1
COc1ccc(C(=O)/C=C/c2ccc(OC)c(CN3CCOCC3)c2)cc1	0.64	x	x	-13	91	i	-0.2
CN(Cc1ccccc1)C(=C(Cl)Cl)/C(=C1/NCCN1C)[N+](=O)[O-]	0.9	x	x	-6	125	i	x
CC(=O)Nc1ccc(Nc2ccccc2)cc1	0.88	x	x	x	93	i	x
O=C(c1ccc(Br)cc1)N(c1ccccn1)C1CCCCC1	0.96	x	x	x	98	i	x
O=C(/C=C/c1ccc(Br)cc1)c1ccc(NC(=O)c2ccco2)cc1	0.96	24	94	2	92	i	1.4
Cc1ccc(S(=O)(=O)N2CCN(C(=O)CN3CCOCC3)C2C(C)C)cc1 (stereo unspecified)	0.88	-500	89	-5	102	i	-2.6
CCCn1c(SCC(=O)Nc2nnc(CC)s2)nnc1-c1ccncc1	1	x	x	-3	107	i	x
NC(=O)Cc1nc2scc(-c3ccccc3)c2c(=O)[nH]1	1.1	x	x	-6	97	i	x
N#Cc1c2n(c3c(=O)n(Cc4ccccc4Cl)cnc13)CCCC2	0.83	0	88	-18	103	i	-2.9

# (more compounds)
SMILES	HSV augment primary fold	Insulin prom inh	Insulin prom inh cell count	PKD1 inh	RGS16-Gao HTS	HSV augment	GALR2 agonist
O=S(=O)(c1cccc2cccnc12)N1CCN(Cc2ccc3c(c2)OCO3)CC1	0.93	x	x	3	102	i	-1.5
CCN(/C=N/c1sc2c(c1C#N)CCCCC2)CC	0.95	-13	63	-3	102	i	0.6
COc1ccc(Cl)cc1N(CC(=O)N/N=C/c1ccc(OCC(N)=O)cc1)S(C)(=O)=O	0.88	x	x	3	99	i	x
Cc1ccc(NC(=O)c2sc(Cl)nc2-c2ccccc2)cc1	0.98	-47	117	-5	103	i	-1.4
COCCn1c(=NC(=O)CN2C(=O)CCC2=O)sc2cc(S(N)(=O)=O)ccc21	1	0	164	-4	104	i	0.1
COc1ccc(NC(=O)COC(=O)c2ccc(OCc3ccccc3Cl)c(OC)c2)c(OC)c1	0.85	7	151	6	98	i	-3.6
Cc1cccc(-n2c(N)c(C(=O)NCCN3CCOCC3)c3nc4ccccc4nc32)c1	0.88	3	109	-4	86	i	3.8
COC(=O)c1ccc(C)c(NC(=O)CCSc2ccc(C)cc2)c1	1	x	x	1	99	i	-0.1
COC(=O)c1c(NC(=O)/C=C/c2ccco2)sc2c1CCC2	1.1	-52	100	-5	94	i	-0.8
Cc1ccc(C)n1NC(=O)c1cccc(Cl)c1	1.2	4	141	-6	213	i	-1.8

# 6 compounds picked at random from the list so far, as already listed:
SMILES	HSV augment primary fold	Insulin prom inh	Insulin prom inh cell count	PKD1 inh	RGS16-Gao HTS	HSV augment	GALR2 agonist
COc1ccc(NC(=O)COC(=O)c2ccc(OCc3ccccc3Cl)c(OC)c2)c(OC)c1	0.85	7	151	6	98	i	-3.6
COC(=O)c1ccc(C)c(NC(=O)CCSc2ccc(C)cc2)c1	1	x	x	1	99	i	-0.1
COc1ccc(Cl)cc1N(CC(=O)N/N=C/c1ccc(OCC(N)=O)cc1)S(C)(=O)=O	0.88	x	x	3	99	i	x
CCN(/C=N/c1sc2c(c1C#N)CCCCC2)CC	0.95	-13	63	-3	102	i	0.6
O=S(=O)(c1cccc2cccnc12)N1CCN(Cc2ccc3c(c2)OCO3)CC1	0.93	x	x	3	102	i	-1.5
Cc1cccc(-n2c(N)c(C(=O)NCCN3CCOCC3)c3nc4ccccc4nc32)c1	0.88	3	109	-4	86	i	3.8

# (continued)
SMILES	HSV augment primary fold	Insulin prom inh	Insulin prom inh cell count	PKD1 inh	RGS16-Gao HTS	HSV augment	GALR2 agonist
Cc1ccc(/C([O-])=C(/C(=S)NCc2ccccc2)[n+]2ccccc2)cc1[N+](=O)[O-]	1	x	x	0	97	i	x
Cc1ccc2c(c1)COc1c3ccc(C(=O)NC(C)C)cc3nn1-2	0.93	x	x	x	96	i	x
Cc1ccccc1C(=O)NC1CCN(C(=O)N2CCOCC2)CC1	0.83	75*	142*	7	28	i	-1.7
COc1ccc(Oc2nc(OC)cc(OC)n2)cc1	1	x	x	-5	98	i	x
CCCC1(c2ccccc2)NC(=O)N(CC(=O)Nc2cc(S(=O)(=O)N3CCOCC3)ccc2Cl)C1=O (stereo unspecified)	0.97	-27	144	-1	108	i	x
N#Cc1nc(COc2cccc(Cl)c2)oc1N1CCN(c2ccccc2)CC1	0.81	24	104	-3	101	i	-2.1
COC(=O)c1[nH]c2ccc(F)cc2c1NS(=O)(=O)c1ccc(OC)cc1OC	0.96	45	61	-7	94	i	-1.5
CCCCn1c(SCC(=O)NC(C)(C)C)nnc1-c1ccco1	0.98	0	100	-2	99	i	-1.3
O=C1N(Cc2cccc(Cl)c2)C[C@@H]2C[C@@H](c3ccco3)N3CCC[C@@]123	1.1	i	55	-4	85	i	x
CC(=O)Nc1cc(C(=O)N2CCCC2)ccc1Sc1ccc(C)cc1	0.94	-20	94	-5	107	i	-2.5
O=C(CN(c1cccc([N+](=O)[O-])c1)S(=O)(=O)c1ccccc1)NCc1ccccc1	0.97	-146	140	-10	102	i	-1.4
O=C1OC(c2ccc(Cl)cc2)=N/C1=C\C=C\c1ccco1	0.94	0	206	-6	112	i	x
Cc1ccc(C(=O)N(C)c2nnc(-c3ccncc3)s2)cc1	0.99	0	111	-5	107	i	x
O=C(NC1CCCCC1)N1CCN(S(=O)(=O)c2ccc(F)cc2)CC1	0.78	x	x	3	96	i	x
O=C1c2cccc3cccc(c23)N1CN1CCN(c2ccccn2)CC1	1.1	x	x	3	168	i	-1.3
Cc1cccc(S(=O)(=O)Nc2ccc3c(c2)OCCO3)c1	1	x	x	-3	107	i	x
CCOc1ccc(NS(=O)(=O)c2ccc3c(c2)CCN3C(=O)CCC(=O)O)cc1	1.1	-12	62	6	64	i	-2.4
NCCc1c(C(=O)O)[nH]c2ccc([N+](=O)[O-])cc12	0.89	x	x	x	105	i	x
C=CCSc1n[nH]c(-c2ccc(OCCCC)cc2)n1	0.92	-17	103	-7	103	i	-0.2
Cc1ccc(NC(=O)NC2(C(=O)NCc3ccco3)CCCCC2)cc1	1.1	-17	78	26	97	i	-1.9
Cc1cccc2cc(C#N)c(SCC(=O)NCc3cccs3)nc12	1.1	-5	98	-10	102	i	1.0
CCC(=O)NC(C)C(c1cccs1)N1CCOCC1 (stereo unspecified)	1.3	x	x	9	x	i	-3.7
O=C(CCc1nnc(CCC2CCCCC2)o1)NCCc1cccnc1	0.98	x	x	-9	100	i	x
C/C(=N\NC(=O)c1cccc(F)c1)c1cccc(NC(=O)c2ccc(F)cc2)c1	0.85	x	x	4	105	i	x
COc1ccc(CCNC(=O)c2ccc(CNS(=O)(=O)c3cc(C)ccc3C)cc2)cc1OC	0.78	11	132	-5	104	i	-2.7
COc1cc2ccccc2cc1C(=O)NC(=S)Nc1cccc(C(=O)O)c1	0.87	x	x	-3	100	i	x
CCO[C@H]1OC(C(=O)Nc2ccccc2)=C[C@@H](c2coc3ccccc3c2=O)[C@@H]1CCCO	0.72	x	x	2	103	i	x

# The order is random; any-hit rate near 1.1%.
